# Screening results from PubChem.
# B2AR ag – activates human beta-2 adrenergic receptor causing internalization; hit rate 0.43% among 340,000; response, % (no concentration beside the values); Am2.2-beta2AR cells, FAP receptor internalization, flow cytometry; reference of the scale not given here;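 active means response above a set limit, near 3 SD of response in nonfluorescent compounds, cut at about 42% in these data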;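 further: stock transfer was 100 nL into about 11 µL; a reference agonist was the positive control; negative values mostly stem from fluorescent compounds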
# Target sequence (P07550 whole entry, looked up): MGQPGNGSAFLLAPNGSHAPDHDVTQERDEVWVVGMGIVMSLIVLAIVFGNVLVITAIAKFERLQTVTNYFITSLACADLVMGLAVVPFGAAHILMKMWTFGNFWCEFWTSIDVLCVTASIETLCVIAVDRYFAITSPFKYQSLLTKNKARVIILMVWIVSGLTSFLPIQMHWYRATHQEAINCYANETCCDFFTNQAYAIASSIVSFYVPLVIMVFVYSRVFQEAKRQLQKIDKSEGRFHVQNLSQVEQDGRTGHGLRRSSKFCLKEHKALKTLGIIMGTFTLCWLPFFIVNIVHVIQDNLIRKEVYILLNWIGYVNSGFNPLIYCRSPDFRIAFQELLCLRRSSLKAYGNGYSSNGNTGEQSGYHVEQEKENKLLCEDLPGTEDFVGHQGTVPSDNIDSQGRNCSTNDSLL
# HNF4A DNA FP – change in binding of human HNF4 alpha to DNA. activity change, % at 10 µM. P41235. hit rate 0.3% among 360,000. HNF4a-FITC DNA binding, fluorescence polarization, 1 h; in the data active means activity change above about 30%, passing the limit was not always enough;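 further: controls were the assay level and a saturating level of protein; the project sought stronger binding though the title names inhibitors; some compounds called inactive have numbers as strong as hits; positive values seem to mean higher polarization but the record does not say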
# Target sequence (P41235 whole entry, looked up): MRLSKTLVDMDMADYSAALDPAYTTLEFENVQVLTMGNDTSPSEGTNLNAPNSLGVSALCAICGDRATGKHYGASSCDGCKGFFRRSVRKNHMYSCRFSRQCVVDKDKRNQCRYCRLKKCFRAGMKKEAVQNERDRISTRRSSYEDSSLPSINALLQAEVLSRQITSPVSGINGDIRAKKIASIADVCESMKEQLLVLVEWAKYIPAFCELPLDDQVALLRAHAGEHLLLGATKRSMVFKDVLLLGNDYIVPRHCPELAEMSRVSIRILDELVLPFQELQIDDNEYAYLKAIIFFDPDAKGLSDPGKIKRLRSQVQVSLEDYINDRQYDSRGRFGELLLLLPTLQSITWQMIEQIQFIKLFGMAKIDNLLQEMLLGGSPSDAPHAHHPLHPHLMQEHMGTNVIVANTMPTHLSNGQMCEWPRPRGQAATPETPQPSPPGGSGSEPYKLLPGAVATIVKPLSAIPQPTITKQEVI
# rRNA inh HTS – inhibits bacterial ribosomal RNA function over humanized ribosomes. E. coli WT GFP vs humanized-ribosome RFP mutants, fluorescence, 24 h; stronger effect = lower value; DMSO median 0, no signal -100. GFP signal change (wild-type ribosome), % (test concentration not listed). hit rate 1.6% among 350,000;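 active means significant combined selectivity score with lowered wild-type GFP, culture density cut under 30%, mutant RFP and density less affected; inactive means any of these conditions unmet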; further: one replicate is shown; some compounds called inactive have numbers as strong as hits
# ALR H2O2 inh – inhibitors of human sulfhydryl oxidase ALR; P55789; purified ALR, DTT oxidation, H2O2 HRP-luminol luminescence; inhibition, % (no concentration beside the values); hit rate 3.8% among 290,000; AID 485317;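 active means mean and each replicate at 75% or more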;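 further: stock transfer was 7.5 nL into about 7.5 µL; 0% = neutral wells and 100% = wells with inactivated enzyme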
# Target sequence (P55789 whole entry, looked up): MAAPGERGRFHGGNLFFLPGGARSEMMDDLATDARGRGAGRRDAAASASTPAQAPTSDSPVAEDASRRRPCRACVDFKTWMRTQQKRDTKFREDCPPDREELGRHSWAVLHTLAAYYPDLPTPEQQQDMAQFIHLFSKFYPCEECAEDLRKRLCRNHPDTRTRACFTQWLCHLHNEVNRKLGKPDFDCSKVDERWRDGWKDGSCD
# E coli growth – blocks Escherichia coli growth | OD600 absorbance (test concentration not listed) | hit rate 0.21% among 330,000 | OD600, 23 h; stronger effect = lower value;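 active means OD600 absorbance below the run mean of sample wells minus 3.6 SD, in any replicate, cut at about 0.56 in these data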;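 further: stock transfer was 300 nL into about 60 µL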
# FGF22 binding – FGF22 (human) thermal shift binding; Q9HCT0; calls only at 9.99 µM; hit rate 1.5% among 340,000; recombinant FGF22 thermal shift, SYPRO orange fluorescence; percent of sucrose octasulfate shift, DMSO zero;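 active means melting point raised past a set limit in the mean and every replicate; three in four hits are not shown here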
# UCH37 inh – blocks the human deubiquitinase UCH37. hit rate 0.33% among 330,000. purified proteasome/UCH37, Ub-AMC cleavage fluorescence. inhibition, % (concentration not given with the values). AID 588478;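 active means mean of two replicates above 20%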;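 further: 0% = compound-free wells with enzyme and 100% = wells lacking proteasome; stock transfer was 100 nL into about 20 µL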
#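 System: Proteasome-associated human UCH37 deubiquitinase; Input: 0.15 nM proteasome in added enzyme buffer; Also added: Ub-AMC substrate from 1 µM stock; Incubation: 30 min compound-proteasome preincubation then 25 min substrate reaction, room temperature; Detection: fluorescence, ex 355 nm, em 460 nm; Read-out: % inhibition of Ub-AMC cleavage fluorescence; Benchmarks: no-proteasome and no-compound wells.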
# rRNA inh HTS OD600 – recorded beside rRNA inh HTS, whose call it bears; OD600 change, %; measured here: OD600 growth;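 optical density of the mix in the first replicate; 0 = DMSO median and -100 = no signal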
# rRNA inh HTS RFP – also measured in rRNA inh HTS; calls as there; RFP signal change, %; measured here: RFP humanized mutant strains;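 first replicate; 0 = DMSO median and -100 = no signal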
# The depositor's hits bear a star; i = inactive; x = no result given. An excerpt. The share of hits here may be higher or lower than overall.
B2AR ag	HNF4A DNA FP	rRNA inh HTS	rRNA inh HTS OD600	rRNA inh HTS RFP	ALR H2O2 inh	E coli growth	FGF22 binding	UCH37 inh	SMILES
61.7*	4.4	x	x	x	2.7	x	x	x	O=C(/C(=C/c1ccc(Cl)cc1)c1nc2ccccc2[nH]1)c1cccs1
1.7	-1.7	0.2	-12.9	-6.2	97.6*	0.721	i	-6.0	O=C(O)c1ccc(Nc2nc3ccccc3nc2NS(=O)(=O)c2ccc(F)cc2)cc1
-7.8	-2.8	-15.8	-12.1	-12.6	7.9	x	i	-1.3	CCN1C(=S)N[C@@H](c2cccc(F)c2)C(C(=O)OC)=C1C
x	0.2	3.9	20.2	-4.3	x	x	x	x	COc1ccc(CCC(=O)Nc2c(-c3ccc(N(C)C)cc3)[nH][nH]c2=O)cc1
3.8	4.1	3.0	5.4	-0.8	75.0	0.672	i	2.0	CCOC(=O)c1[nH]c(C)c(C(=O)N2CCN(c3ccc(OC)cc3)CC2)c1C
5.3	1.4	6.1	1.6	-0.7	-0.6	0.707	i	0.2	CCOC(=O)C(NC(=O)c1ccccc1)(OCc1ccc(F)cc1)C(F)(F)F (stereo not drawn)
-2.5	-0.2	-2.5	1.4	7.6	3.2	0.698	i	2.0	CCC1Oc2ccc(C)cc2N(CC(=O)NCCN2CCCCCC2)C1=O (stereo not drawn)
5.3	-1.0	-6.4	2.5	-1.3	x	0.679	i	-36.0	COc1ccc(Cn2nnnc2CN(CCCN2CCOCC2)Cc2cc3cc(OC)ccc3[nH]c2=O)cc1
-10.5	3.0	12.9	8.5	-1.8	5.5	0.667	x	5.0	O=C(CCc1ccccc1)N1N=C(c2ccncc2)CC1(O)C(F)(F)F (stereo not drawn)
17.4	4.8	-1.0	2.5	-3.5	-5.1	0.791	i	2.8	Cc1c(Cc2ccc3c(c2)OCO3)sc(NC(=O)C(C)(C)C)c1C#N
-0.8	-0.8	0.3	6.0	-3.1	1.7	0.754	x	-22.0	O=C(Nc1ccc(NC(=O)c2ccc(Cl)cc2Cl)cc1)c1cccs1
-4.6	3.7	7.5	-5.1	-2.3	-5.1	0.705	i	2.1	COc1cc(C(C(=O)NC2CCCCC2)N(CCN2CCOCC2)C(=O)C2COc3ccccc3O2)cc(OC)c1OC (stereo not drawn)
-0.5	2.4	x	x	x	-3.0	0.689	x	-3.9	Cc1ccc(-c2ccc(=O)n(CC(=O)NCCCN3CCCCC3C)n2)cc1 (stereo not drawn)
-0.1	-3.4	8.8	4.0	-1.5	-9.2	0.615	i	-4.1	O=C(NNC(=O)c1ccc(NC(=O)c2ccccc2)cc1)c1ccccc1
-0.8	2.0	x	x	x	11.9	0.669	x	-0.9	O=C(N1CCCCC1)C12CC3CC(CC(C3)C1)C2
7.4	2.8	x	x	x	x	0.751	x	-0.3	COc1ccc(S(N)(=O)=O)cc1C(=O)NCCCN1CCN(c2cccc(Cl)c2)CC1
3.8	0.0	6.8	17.6	-1.1	-5.9	0.674	i	-0.2	O=C(O)c1ccccc1C(=O)NC1CCCc2ccccc21 (stereo not drawn)
-4.3	0.3	7.7	10.7	0.1	-1.1	0.722	i	1.5	CS(=O)(=O)N(CC(=O)NCc1ccncc1)C1CCCCC1
-3.7	-4.7	9.3	11.0	-1.0	-1.0	0.652	i	0.7	Cc1cnc(NC(=O)CCNC(=O)c2ccc([N+](=O)[O-])cc2)s1
10.6	-1.1	-6.9	-6.8	0.9	2.3	0.638	i	-0.4	Cc1ccc(OC(C)C(=O)Nc2ccc(S(=O)(=O)Nc3nccs3)cc2)cc1 (stereo not drawn)
5.0	1.7	2.6	3.4	-0.8	x	0.723	i	4.7	Nc1ncnc2c1ncn2[C@@H]1O[C@H](CNC(=O)[C@@H]2CCN2)[C@@H](O)[C@H]1O
-1.4	2.2	-0.3	-3.0	-1.2	-7.7	0.668	i	4.1	CCO/C=C/C(O)(CNC(=O)c1ccc(C(C)(C)C)cc1)C(F)(F)F (stereo not drawn)
3.8	5.3	1.3	-0.7	0.8	-18.1	0.659	i	-0.6	COCc1ccc(C(=O)N2CCCC(N(C)Cc3ccccc3)C2)s1 (stereo not drawn)
11.9	5.7	-21.2	-15.7	29.5	18.8	0.707	i	3.5	CSc1nsc2nc(=O)c(/C=C3\C(C)=Nc4ccc(C)cc43)c(N)n12
-6.7	0.1	x	x	x	5.3	0.743	x	0.5	O=C(CN1CCN(CC(=O)Nc2ccccn2)CC1)Nc1ccccn1
4.1	-1.9	x	x	x	-4.0	0.726	x	-1.5	COC(=O)c1ccccc1NC(=O)c1ccc(COc2cc(C)cc(C)c2)o1
9.1	3.9	1.5	7.2	-2.8	3.0	0.69	i	-26.3	COc1cc2c(cc1OC)CN(C(=O)COc1ccccc1C#N)CC2
16.5	4.0	26.5	15.5	3.5	-8.9	0.658	i	2.5	Cc1cc(NC(=O)c2cc(-c3ccccn3)nc3ccc(Br)cc23)no1
x	x	x	x	x	-4.4	0.77	x	-0.4	O=C1c2ccccc2C(=O)N1CCCc1nc2ccccc2c(=O)n1-c1cccnc1
1.7	-4.9	-28.1	-21.9	-6.0	-2.0	0.684	i	-171.2	COc1ccc(-c2cc(C(=O)N(C)Cc3ccccc3)c3ccccc3n2)cc1
-4.7	0.8	x	x	x	68.8	x	x	x	COc1cc(/C=N/N=C(/C(=O)c2ccccc2)c2ccccc2)cc(OC)c1O
x	0.1	-50.4	-72.7	-14.6	x	x	i	x	NC(=O)c1cccc(-c2coc3c(C(=O)NC4CCCCC4)cccc23)c1
0.1	-0.1	-0.9	-3.3	-0.5	32.6	0.688	i	1.5	O=C(C1CCCN(S(=O)(=O)c2ccccc2)C1)N1CCN(c2ccccc2)CC1 (stereo not drawn)
1.1	-0.2	-3.8	-3.7	-2.8	-7.9	0.676	i	-3.7	COc1cccc(CC2(CO)CCCN(S(=O)(=O)N(C)C)C2)c1 (stereo not drawn)
-5.9	-2.0	3.8	10.2	0.8	-8.1	0.683	i	3.8	CC1N(C(=O)N(C)C)CCN1S(=O)(=O)c1ccccc1 (stereo not drawn)
3.2	-1.1	-11.0	-11.9	-4.6	-5.9	0.694	i	1.3	CCC(CC)C(=O)c1c[nH]c(C(=O)NCc2cccnc2)c1
0.9	2.2	x	x	x	-2.3	0.758	x	2.4	COC(=O)c1[nH]c(C)c(/C(O)=C2\C(=O)C(=O)N(CCN3CCOCC3)C2c2cccs2)c1C (stereo not drawn)
0.4	-2.1	1.5	3.6	0.9	-5.7	0.715	i	3.7	O=C(Nc1ccc(N2CCN(Cc3ccccc3)CC2)cc1)c1ccccc1[N+](=O)[O-]
-4.0	-2.4	14.8	8.6	-0.1	-2.8	0.72	i	5.1	CCOc1ccc(NS(=O)(=O)c2ccc(NC(=O)C3CC3)cc2)cc1
0.0	-3.9	12.7	3.9	1.8	-5.3	0.721	i	-1.3	O=C(Nc1nnc(C2CC2)s1)C1Cc2ccccc2CN1C(=O)c1ccco1 (stereo not drawn)
-19.2	4.6	x	x	x	-1.0	0.726	x	-41.0	COC(=O)c1ccc(N2CCN(C)CC2)c(NC(=O)c2ccc(-c3ccc(Cl)cc3)o2)c1
1.8	-3.2	-8.6	6.2	-1.8	-3.7	0.729	i	5.8	C=CCn1c(=O)c2ccc(C(=O)NCc3ccccc3)cc2n(Cc2cccc(Cl)c2)c1=O
x	1.7	-24.9	-33.7	-4.0	x	x	i	x	COC(=O)[C@]12CCCCC=C1N(CCC1=CCCCC1)C(=O)[C@H](CC(=O)N1CCCC1)C2
16.8	0.4	5.2	9.0	0.2	x	0.595	i	0.8	COCCCNc1nnc(Cc2ccc(Cl)cc2)c(=O)[nH]1
x	-4.0	5.9	12.6	0.4	x	x	i	x	CCCS(=O)(=O)NC(=O)C1(C)CCN(C(=O)c2cccc(C)c2C)C1 (stereo not drawn)
x	-2.0	-19.4	-43.1	11.3	x	x	i	x	Cc1cccnc1C(NC(=O)C1CCN(CCCOc2ccc(F)cc2)CC1)c1ccccc1 (stereo not drawn)
1.6	-4.9	1.0	-1.7	-5.1	5.1	x	i	-0.2	O=C(O)C[C@H]1c2cc(C(F)(F)F)ccc2S(=O)(=O)N1C1CCCCC1
7.4	4.8	6.7	11.9	0.8	-11.7	0.723	i	3.2	COc1ccc(NC(=O)c2nc(S(=O)(=O)Cc3cccc(C)c3)ncc2Cl)c(OC)c1
0.4	-1.3	x	x	x	-3.7	0.685	x	1.9	COc1ccc(-c2nc3cc(NC(=S)NC(=O)Cc4ccccc4)ccc3o2)cc1
-5.7	-3.2	-10.1	-15.2	2.6	-7.9	0.681	i	0.0	COc1ccc([N+](=O)[O-])cc1NC(=O)C(C)N(C)Cc1cccc(OC)c1OC (stereo not drawn)

# Following part.
B2AR ag	HNF4A DNA FP	rRNA inh HTS	rRNA inh HTS OD600	rRNA inh HTS RFP	ALR H2O2 inh	E coli growth	FGF22 binding	UCH37 inh	SMILES
-1.4	1.2	-1.8	-7.7	3.7	x	0.686	i	2.4	CC(C)Oc1ccc(S(=O)(=O)N2CCCCC2)cc1NC(=O)CN1C(=O)NC(C)(C2CC2)C1=O (stereo not drawn)
-14.6	3.0	-3.1	2.0	-1.9	22.1	x	i	x	Cn1cc(Br)c(C(=O)N/N=C/c2cc3ccccc3nc2Cl)n1
-5.6	-1.4	-5.9	10.6	-0.4	1.5	0.668	i	2.8	N#Cc1ccc(NC(=O)COc2ccc(-n3cnnn3)cc2)cc1
8.1	0.4	-7.0	-0.1	-6.3	x	x	i	x	COc1ccc(/C=N/NC(=O)Cn2cnc3c2c(=O)n(C)c(=O)n3C)c(OC)c1OC
-2.8	-0.3	14.3	9.0	1.0	-0.7	0.655	x	0.4	CCCCn1cnc2c1c(=O)n(C)c(=O)n2C
-1.2	4.7	7.0	5.7	-0.6	62.1	0.652	i	5.8	Cc1cc(C)cc(NC(=S)N(Cc2cccc(Br)c2)CC2CCC(C(=O)O)CC2)c1 (stereo not drawn)
-0.1	1.9	4.9	-0.3	-0.1	-8.1	0.673	i	1.6	COc1ccccc1N(CC(=O)NCCC1=CCCCC1)S(=O)(=O)c1ccccc1
0.8	-1.8	3.2	3.2	-0.9	-9.4	0.718	i	3.7	CCOc1ccccc1NC(=O)COC(=O)CSc1ccc(Cl)cc1
-2.9	-0.1	3.0	1.1	-7.7	16.1	0.645	i	1.0	N#C/C=C(/c1ccc(F)cc1)N1CCOCC1
-3.5	1.4	-29.9*	-8.6*	-3.2*	-15.7	0.708	i	0.2	COC(=O)c1sccc1NC(=O)Cn1nnc(-c2ccccc2C)n1
-0.8	2.3	5.0	6.4	2.5	-0.6	0.675	i	1.6	COc1ccccc1/C=C/CN1CCC(n2nccc2NC(=O)C2CC2)CC1
-1.6	0.4	3.6	-2.4	-0.5	-18.1	0.685	i	-0.6	Cc1ccc(NC(=O)C(=O)NCCCN2CCCC2=O)c(C)c1
5.7	-2.0	x	x	x	-3.8	0.702	x	6.1	CCOc1ccc(NC(=O)Cc2ccccc2)cc1
5.2	-1.1	1.8	7.9	-4.3	-57.5	0.68	i	2.1	CC(=O)Nc1c(Cl)cc([N+](=O)[O-])c2ccccc12
-9.0	5.1	-17.4	-7.3	0.2	-1.4	0.647	i	3.5	Cc1noc(C)c1COc1cccc(C(=O)Nc2ccc3c(c2)OCO3)c1
1.4	-2.9	18.2	-1.4	8.3	-23.3	0.742	i	-3.1	O=C(CC1C(=O)NCCN1Cc1ccccc1C(F)(F)F)NCCN1CCCCC1=O (stereo not drawn)

# At a glance, some entries already given:
B2AR ag	HNF4A DNA FP	rRNA inh HTS	rRNA inh HTS OD600	rRNA inh HTS RFP	ALR H2O2 inh	E coli growth	FGF22 binding	UCH37 inh	SMILES
61.7*	4.4	x	x	x	2.7	x	x	x	O=C(/C(=C/c1ccc(Cl)cc1)c1nc2ccccc2[nH]1)c1cccs1
1.7	-1.7	0.2	-12.9	-6.2	97.6*	0.721	i	-6.0	O=C(O)c1ccc(Nc2nc3ccccc3nc2NS(=O)(=O)c2ccc(F)cc2)cc1
